# Source: PubChem BioAssay (several laboratories)
# Autofluor counter: compound fluorescence in toxin protease inhibitor counterscreen | AID 624483 | compound autofluorescence counterscreen, microsphere flow cytometry; hits give high values | fluorescence intensity (concentration not given with the values) | 360,000 compounds, 3.1% hits;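 active = at least 3 SD above the mean of all compounds, about 16000 in these data; inconclusive = too few beads counted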;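 also: 100 nL of 1 mM stock went into each well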
# PrP UTR inh: suppresses PrP 5' UTR mRNA reporter expression; cell-based PrP 5' UTR mRNA reporter, plate reader; inhibition, % (test concentration not listed); 340,000 compounds, 0.35% hits; AID 488862;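 active = every replicate at 50% or more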;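 also: 0 = median of the neutral control wells; tested in H4 reporter cells; numbers are from one replicate; inactives centre near -14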
# Sa ugtP lethal: compounds lethal to S. aureus RN4220 ugtP deletion mutant | OD600 growth, 16 h; some inactives read as strong as hits | growth inhibition, % (concentration not given with the values) | 330,000 compounds, 0.54% hits | AID 1259309;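 active = z-score under -3 and OD600 up to 0.15 on both plates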;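 also: plate controls were untreated wells for no effect and antibiotic for full effect; wells of about 80 µL received 100 nL stock; the first replicate is given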
# BJeLR lethal: BJeLR cell viability loss. BJeLR (HRASV12) viability, CellTiter-Glo ATP luminescence, 48 h; reference of the scale not given here. inhibition, % (test concentration not listed). 300,000 compounds, 0.17% hits. AID 1554;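 active = replicate mean above 50%; inconclusive = above 50% but judged a plate artefact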;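 also: 50 nL library stock added to about 25 µL; numbers are from one replicate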
# Mtb hypoxia rep: Mtb hypoxia fluorescent reporter inhibition | M. tuberculosis hypoxia-regulated fluorescent reporter, fluorescence | fluorescence inhibition, % (test concentration not listed) | 300,000 compounds, 0.1% hits;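 active = 35 to 45% if threefold the growth effect, above 45% if 1.5-fold the growth effect; inactive = the rest, general growth blockers included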;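 also: wells of about 50 µL received 100 nL stock; 0% = vehicle wells and 100% = reference inhibitor wells; whole bacteria with a GFP reporter of the hypoxia response; strong numbers were not always called active; many hits fall short of the cut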
# RN4220 kill: kills Staphylococcus aureus RN4220. inhibition, % (no concentration beside the values). S. aureus RN4220 growth, OD600, 16 h. 330,000 compounds, 0.33% hits;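 active = z-score of -3 or lower and OD600 up to 0.18 on both plates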;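 also: plate controls were untreated cells for no effect and reference antibiotic for full effect; stock transfer was 100 nL into about 80 µL; one replicate is shown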
# Mtb hypoxia rep growth: also measured in Mtb hypoxia rep; calls as there; growth inhibition, %; measured here: M. tuberculosis growth (absorbance);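 0% = vehicle and 100% = reference antibiotic; read after six days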
# An asterisk follows results filed as active; ? = inconclusive; . = not tested or not shown; & = joins results of further samples.
# Start of the data: the first 5 entries, ahead of the listing:
SMILES,Autofluor counter,PrP UTR inh,Sa ugtP lethal,BJeLR lethal,Mtb hypoxia rep,Mtb hypoxia rep growth,RN4220 kill
O=c1cc[nH]c2ccc(Cl)cc12,3888,-21,7,-7,14,0,2.8
COc1ccc(C(CNC(=O)CSc2ccc(Br)cc2C)N2CCOCC2)cc1 (centres undefined),5208,-5,0,7,-3,1,6.7
COC(=O)c1ccccc1NC(=O)N1CCN(c2ccc(OC)cc2)CC1,2232,-10,4,20,14,2,3.9
Cc1ccc(C(C)NC(=O)c2ccncc2)cc1C (centres undefined),5880,-11,15,8,6,-4,5.6
Cc1c(C(=O)NC(=S)Nc2ccc(NC(=O)c3cccs3)cc2)cccc1[N+](=O)[O-],2468,-6,2,-8,.,.,6.0

# The listing (from the top)
SMILES,Autofluor counter,PrP UTR inh,Sa ugtP lethal,BJeLR lethal,Mtb hypoxia rep,Mtb hypoxia rep growth,RN4220 kill
O=c1cc[nH]c2ccc(Cl)cc12,3888,-21,7,-7,14,0,2.8
COc1ccc(C(CNC(=O)CSc2ccc(Br)cc2C)N2CCOCC2)cc1 (centres undefined),5208,-5,0,7,-3,1,6.7
COC(=O)c1ccccc1NC(=O)N1CCN(c2ccc(OC)cc2)CC1,2232,-10,4,20,14,2,3.9
Cc1ccc(C(C)NC(=O)c2ccncc2)cc1C (centres undefined),5880,-11,15,8,6,-4,5.6
Cc1c(C(=O)NC(=S)Nc2ccc(NC(=O)c3cccs3)cc2)cccc1[N+](=O)[O-],2468,-6,2,-8,.,.,6.0
CCCCOc1ccc(C(=O)NCC2(c3ccc(OC)cc3)CCOCC2)cc1,6815,-15,15,-4,6,9,-0.2
OC(CN1CCN(c2cccc(Cl)c2)CC1)c1ccc(F)cc1 (centres undefined),3079,-17,8,0,10,0,0.5
CCOC(=O)c1cnn(CCOC(=O)c2ccccc2F)c1NC(=O)c1ccccc1F,6708,-2,-8,-2,5,-1,5.5
O=C(CCc1ccccc1)Nc1ccc(N2CCOCC2)c(Cl)c1,2579,-14,8,7,3,6,-0.4
CCOC(=O)c1ccc(NC(=O)CN2C(=O)NC3(CCCCCC3)C2=O)cc1,4063,8,5,-10,17,14,1.3
Cc1onc(COc2ccccc2O)c1Br,3847,-22,0,-6,-6,3,4.3
COc1ccccc1/C=C/C(=O)NCC(=O)NN=Cc1cccnc1,.,.,7,.,7,6,1.0
COc1ccc(S(=O)(=O)N2CCCCCC2)cc1C(=O)NC1(C)CCS(=O)(=O)C1 (centres undefined),5667,-21,6,-13,1,-4,2.2
Cc1ccc(NC(=O)c2nc[nH]c2C(=O)NCCCCCCNC(=O)c2[nH]cnc2C(=O)Nc2ccc(C)cc2)cc1,4169,-13,-18,.,5,8,-2.4
Cc1cc2oc(=O)cc(CSc3nc(N)cc(N)n3)c2cc1C,2187,-15,6,-5,.,.,3.6
CN1CCN(C(c2ccc(Br)cc2)c2cc(Cl)c3cccnc3c2O)CC1 (centres undefined),4855,-10,.,7,.,.,.
NC(=O)C1CCN(c2nc(-c3ccccc3-c3ccccc3)cs2)CC1,3548,9,-7,.,5,3,-3.2
O=C(NCc1cccs1)C1CCCN1C(=O)Nc1ccccc1[N+](=O)[O-] (centres undefined),3194,-19,2,0,2,1,3.9
O=C(NCC1CCCC(CNC(=O)N2CCc3ccccc32)C1)N1CCc2ccccc21 (centres undefined),21215*,-34,-16,-4,-7,8,0.1
CC(C)NC(=S)NN=C1CCC(c2ccccc2)CC1 (centres undefined),2531,6,12,-4,6,9,3.4

# Some values from the results shown.
# Cc1ccc(C(C)NC(=O)c2ccncc2)cc1C (centres undefined) in Autofluor counter → 5880
# CCOC(=O)c1ccc(NC(=O)CN2C(=O)NC3(CCCCCC3)C2=O)cc1 in Sa ugtP lethal → 5
# CCOC(=O)c1cnn(CCOC(=O)c2ccccc2F)c1NC(=O)c1ccccc1F in Mtb hypoxia rep growth → -1

# Further compounds
SMILES,Autofluor counter,PrP UTR inh,Sa ugtP lethal,BJeLR lethal,Mtb hypoxia rep,Mtb hypoxia rep growth,RN4220 kill
CCCCCCc1cc2cc(C(=O)OCC)c(=O)oc2cc1O,3705,-2,-2,-21,-7,3,8.8
CC(=NNC(=O)c1nnn(-c2nonc2N)c1-c1cccs1)c1ccc(C)cc1,.,.,2,.,-1,-2,2.1
CCC(C)C(Nc1nc(-c2ccccc2)nc2c1oc1ccccc12)C(=O)O (centres undefined),.,.,-11,.,2,3,-7.6
Cc1ccc(NC(=O)N2N=C(c3ccc(F)cc3)CC2c2ccc(F)cc2)cc1 (centres undefined),7385,-2,23,11,-3,-5,7.3
COC(=O)c1ccc(NC(=S)N2CCCC2)cc1,4398,-20,4,8,10,1,0.2
O=C(Nc1ccccc1F)c1ccc(CN2CCc3ccccc3C2)cc1,3959,-25,0,6,10,3,2.2
COC(=O)/C(C#N)=C/c1ccc(OC(=O)c2ccccn2)cc1,2453,-23,3,11,13,3,-0.4
COc1ccc(N=Nc2cc(C)ccc2O)cc1,5347,-37,11,1,6,-10,-0.9
C=CCOc1ccc(/C=N/NC(=O)C(C)Sc2ccccn2)cc1OCC (centres undefined),2699,-13,.,-6,.,.,.
S=C(Nc1ccc(Cl)cc1)NC1CC2CCC(C1)N2Cc1ccccc1 (centres undefined),4695,-26,-1,5,11,5,-2.6
Cc1ccc(C(=O)CSc2cc(C)nc(SCC(=O)c3ccccc3)n2)cc1,3049,-9,-8,-12,12,14,-0.9
Cc1ccc(C)c(NC(=O)CSc2nnc(C3CCCCC3)o2)c1,3966,-16,.,3,.,.,.
COCCSc1nnc(NC(=O)c2ccc(NC(=O)C(C)C)cc2)s1,4234,-16,11,6,-8,2,8.3
CCN(CC)S(=O)(=O)c1ccc(C)c(NC(=O)COC(=O)CNC(=O)c2ccc(C(C)(C)C)cc2)c1,10113,-34,12,5,12,7,5.0
CCc1ccc(NC(=O)CN(CC(=O)Nc2ccc(CC)cc2)CC(C)O)cc1 (centres undefined),3450,-18,5,2,9,5,2.2
Cc1nn(CCC#N)c(NC(=O)c2ccccc2)c1P(=O)(Nc1ccc(Br)cc1)N1CCOCC1 (centres undefined),3188,-21,2,3,-9,-8,1.9
CN(C)P(=S)(Nc1ccccc1)C(Cl)(Cl)Cl (centres undefined),4939,-5,-7,-2,2,0,5.8
N/C(=N\OC(=O)COc1ccccc1)c1ccncc1,4489,-23,5,4,-3,0,2.7
Cc1ccc(C(=O)NC(Cc2ccccc2C(F)(F)F)C(=O)O)cc1 (centres undefined),4015,-18,2,.,3,2,0.9
COc1ccc(C=NOC/C(O)=C(\C#N)c2nc3ccccc3[nH]2)cc1,.,.,-2,.,2,5,5.0
CCCOc1ccc(C(C)=O)cc1CC(C(N)=O)C(N)=O,.,4,-3,4,2,7,-13
C#CCOCCOCCOCCNc1nc(N2CCN(C(=O)C(CCC(=O)O)n3cc(C(N)Cc4ccc(O)cc4)nn3)CC2)nc(N2CCN(C(=O)C(CCC(=O)O)n3cc(C(N)Cc4ccc(O)cc4)nn3)CC2)n1 (centres undefined),.,.,3,.,10,4,4.5
N#Cc1c(N)nc2c(c1-c1ccc(F)cc1)c(=O)nc1sccn12,4265,-9,3,-3,13,4,2.3
Cc1ccc(C(C)C)c(OCC(=O)NC2CCN(C)CC2)c1,4578,-2,5,-7,11,11,3.5
CNc1nc(-c2ccc3c(c2)CCN3C(=O)c2cccc(F)c2)cs1,4204,-169,6,29,-8,8,12
COc1ccc(C(=O)OCC(=O)Nc2cc(C)on2)c(OC)c1OC,4276,-9,1,-17,13,2,5.2
O=C(C(=NN=Cc1ccc(O)c(O)c1)c1ccccc1)c1ccccc1,.,.,-7,.,2,6,-1.3
COc1ccc(N(CC(=O)NCCC2=CCCCC2)S(=O)(=O)c2ccccc2F)cc1,4136,-14,6,6,2,-7,6.4
c1ccc(Nc2nc(NCCN3CCOCC3)nc(Nc3ccccc3)n2)cc1,4307,9,-3,2,3,6,3.8
C#CCSc1nnc(-c2c[nH]c3ccccc23)n1C,6768,-12,2,-2,-2,12,11
O=C1NC(=S)N(c2ccc(Br)cc2)C(=O)/C1=C/N1CCN(C(=O)c2ccco2)CC1,4438,-25,8,2,11,3,8.1
CCOC(=O)C1=C(COC(=O)c2ccccc2OC(F)F)NC(=O)NC1C (centres undefined),5564,-9,5,-2,3,1,7.3
Nc1c(Cl)ncnc1NCC(O)CO (centres undefined),6318,-16,14,5,6,-1,2.4
Cc1ccc(C)c(/C(O)=C2/C(=O)C(=O)N(CCN3CCOCC3)C2c2ccco2)c1 (centres undefined),2776,-15,0,-2,.,.,2.0
COC(=O)C(Cc1c[nH]c2ccccc12)NC(=O)c1ccc2nc[nH]c2c1 (centres undefined),?,-42,-1,.,11,-1,7.0
O=C(N/N=C/c1cc(Br)cc(Br)c1O)c1cccc(S(=O)(=O)N2CCOCC2)c1,3607,36,.,-1,.,.,.
COC(=O)c1cc(S(=O)(=O)N2CCN(c3ccc([N+](=O)[O-])cc3)CC2)c[nH]1,5227,-27,-5,3,-10,-3,-1.1
O=C(N/N=C/c1ccc2c(c1)OCO2)c1ccc2c(c1)OCCO2,2520,-30,.,-1,.,.,.
CN(C)C(=O)c1ccc(NC(=O)c2cccnc2)cc1,10277,-10,3,0,5,2,4.0
CCOc1ncccc1C(=O)Nc1cc(S(=O)(=O)N2CCCCC2)ccc1C,8417,0,-3,.,-6,4,1.5
CC(=NNC(=O)CN1CCN(S(=O)(=O)c2ccc(C)cc2)CC1)c1cccc(O)c1,.,.,-13,.,-3,-5,2.7
CC(OC(=O)CCN1C(=O)C2CC=CCC2C1=O)C(=O)Nc1cccc(Cl)c1 (centres undefined),4143,-25,-2,-9,-4,-2,0.5
CCOC(=O)N1CCN(c2c(NCCCN3CCCCCC3)c(=O)c2=O)CC1,6032,-16,7,7,8,2,1.9
COc1cc(O)c(C(CC(=O)N2CCN(c3ccccc3)CC2)c2ccc3c(c2)OCO3)c(OC)c1 (centres undefined),3914,-34,-5,4,-1,6,-0.5
Cc1c(N2C(=O)c3ccccc3C2=O)c(=O)n(-c2ccccc2)n1C,3123,-11,1,-7,8,2,-9.6
O=C(C1=CC(C2CCCCC2)CC(OCc2ccc(CO)cc2)O1)N1CCOCC1 (centres undefined),.,.,4&-7,.,5&10,4&3,6.6&5.9
CCOc1ccc(S(=O)(=O)N(C)CC(=O)NC2CCCC2)cc1,5035,-8,1,2,2,9,0.3
CC1(c2ccc([N+](=O)[O-])c(CS(=O)(=O)c3ccccc3)c2)OCCO1,4065,-30,-3,-1,-3,3,-0.9
COc1cc(OC)cc(-c2nnc(SCC(=O)Nc3ccc(C(=O)O)cc3)s2)c1,4281,-2,6,-5,6,7,9.2
COc1ccc(-c2nc3ccccn3c2NCc2ccc3c(c2)OCO3)cc1,4471,-32,2,3,10,12,5.0
CCCCCN(C(=O)CCC(=O)OCC(=O)N(CC)c1ccccc1)c1c(N)n(CCCC)c(=O)[nH]c1=O,5913,-17,4,-3,5,9,2.6
CCOc1ccc2nc(N3CCCCCC3)sc2c1,16527*,-117,50,-1,14,14,7.3
N#CC(=Cc1ccc(Oc2ccc(C(F)(F)F)cc2[N+](=O)[O-])cc1)c1nc2ccccc2[nH]1,.,.,-39,.,-24,-12,-8.3
COc1ccccc1N1CCN(CCCCOc2c(OC)cccc2OC)CC1,3668,-21,16,5,8,11,-6.0
O=C(O)c1cc(-c2ccc(Cl)s2)[nH]n1,4053,-7,6,-11,9,8,5.2
N#CCCN1CCN(S(=O)(=O)c2ccc(S(=O)(=O)NC3CCCC3)cc2)CC1,6545,-27,15,3,.,.,2.6
O=C(Cc1ccccc1)Nc1ccccc1C(=O)NCC1CCCO1 (centres undefined),?,-17,9,-6,10,6,2.4
CCC(C(=O)NCCCN1CCCC1=O)n1c2ccccc2c2nc(=O)cc(C)n21 (centres undefined),5200,-19,5,-3,7,8,0.4
CCN1C(=O)C2C(c3ccc(O)c(OC)c3)NC(C)(C(=O)OC)C2C1=O (centres undefined),6744,-17,3,3,7,2,2.8
COc1cc(C(=O)OCC(=O)Nc2cc(C)on2)cc(OC)c1OC,9443,-30,6,0,8,8,4.0
Fc1ccc(CN2CCN(C(=S)NCCc3ccccc3)CC2)c(Cl)c1,5095,-70,5,-7,-2,8,2.5
